Source: PubChem
AF4-AF9 inh: blocks AF4 peptide binding to human AF9. AlphaScreen, biotin-AF4 peptide binding to FLAG-AF9. inhibition, % at 10 µM. 350,000 compounds, 0.47% hits. AID 651704;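 active means every replicate reaching a set inhibition limit, whatever the replicate mean, cut at about 25% in these data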;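 further: 0% = plate neutral control median and 100% = total signal loss; the record names both 10 and 1 µM as test concentration; the first replicate is given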
UCH37 inh: blocks the human deubiquitinase UCH37; Q9Y5K5; purified proteasome/UCH37, Ub-AMC cleavage fluorescence; inhibition, % (test concentration not listed); 330,000 compounds, 0.33% hits; AID 588478;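 active means mean of two replicates above 20%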;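 further: 0% = compound-free wells with enzyme and 100% = wells lacking proteasome; stock transfer was 100 nL into about 20 µL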
Target sequence (Q9Y5K5 whole entry, looked up): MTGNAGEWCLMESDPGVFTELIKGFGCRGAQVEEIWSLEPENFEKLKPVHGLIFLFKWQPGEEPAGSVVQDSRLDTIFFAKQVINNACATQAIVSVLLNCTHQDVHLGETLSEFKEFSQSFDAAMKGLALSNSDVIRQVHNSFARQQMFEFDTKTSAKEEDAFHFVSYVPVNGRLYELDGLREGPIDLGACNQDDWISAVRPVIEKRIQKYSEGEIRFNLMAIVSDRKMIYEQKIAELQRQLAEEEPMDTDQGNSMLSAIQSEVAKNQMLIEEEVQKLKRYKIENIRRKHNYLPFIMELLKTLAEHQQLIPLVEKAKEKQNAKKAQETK
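Reagent: Ub-AMC substrate; assay system: Proteasome-associated human UCH37 deubiquitinase; controls: no-proteasome and no-compound wells; read-out: % inhibition of Ub-AMC cleavage fluorescence; timing: 30 min preincubation with enzyme, 25 min cleavage at room temperature; signal: AMC fluorescence from Ub-AMC cleavage, excitation 355 nm, emission 460 nm; buffer or medium: Tris-HCl pH 7.4 plus ovalbumin, ATP-MgCl2, DTT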
Ecoli growth: inhibitors of Escherichia coli growth | OD600 absorbance (no concentration beside the values) | OD600, 23 h; hits give low values | AID 1053175 | 330,000 compounds, 0.21% hits;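 active means OD600 absorbance below the run mean of sample wells minus 3.6 SD, in any replicate, cut at about 0.56 in these data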;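 further: stock transfer was 300 nL into about 60 µL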
A1 inh: inhibitors of the anti-apoptotic protein A1, read as caspase activation; caspase activation, % (concentration not given with the values); MEF A1-2A-BIM cells, Caspase-Glo 3/7 luminescence, 3 h; percent of clofoctol response, vehicle zero; 330,000 compounds, 0.066% hits; AID 2462;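 active means over half of replicate activation scores above 10%, or exactly half above 10 with the replicate mean above 10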;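 further: wells of about 30 µL received 50 nL stock; many hits fall short of the cut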
T cruzi repl: T. cruzi replication inhibition. T. cruzi beta-gal in NIH3T3, luminescence, 90 h. 300,000 compounds, 1.4% hits. inhibition, % (test concentration not listed);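 active means mean inhibition across valid replicates above about 55%, limit read from the data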;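 further: signal also drops with host cell toxicity which is not excluded here; 0% = plate median of DMSO wells and 100% = zero luminescence signal; higher percent means less beta-gal luminescence so fewer parasites; stock transfer was 50 nL into about 50 µL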
Beta cell apopt: blocks beta cell apoptosis; INS-1E cytokine-induced death, ATP luminescence, 48 h; percent of positive-control rescue, neutral wells zero; protection from apoptosis, % (no concentration beside the values); 300,000 compounds, 0.8% hits;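 active means all replicates at 75% or more, or half of them and the mean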;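 further: 0% = cytokine-treated negative control wells and 100% = positive control rescue; higher means more ATP so stronger rescue from cytokine killing; wells of about 40 µL received 100 nL stock; the first replicate is given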
rRNA inh HTS: inhibits bacterial ribosomal RNA function over humanized ribosomes | E. coli WT GFP vs humanized-ribosome RFP mutants, fluorescence, 24 h; hits give low values; DMSO median 0, no signal -100 | GFP signal change (wild-type ribosome), % (test concentration not listed) | 350,000 compounds, 1.6% hits | AID 720706;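 active means significant combined selectivity score with lowered wild-type GFP, culture density cut under 30%, mutant RFP and density less affected; inactive means any of these conditions unmet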; further: one replicate is shown; some compounds called inactive have numbers as strong as hits
FGF22 binding: shifts melting point of recombinant human FGF22. calls only at 9.99 µM. 340,000 compounds, 1.5% hits. recombinant FGF22 thermal shift, SYPRO orange fluorescence; percent of sucrose octasulfate shift, DMSO zero. AID 651658;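 active means melting point raised past a set limit in the mean and every replicate; three in four hits are not shown here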
Target sequence (Q9HCT0 whole entry, looked up): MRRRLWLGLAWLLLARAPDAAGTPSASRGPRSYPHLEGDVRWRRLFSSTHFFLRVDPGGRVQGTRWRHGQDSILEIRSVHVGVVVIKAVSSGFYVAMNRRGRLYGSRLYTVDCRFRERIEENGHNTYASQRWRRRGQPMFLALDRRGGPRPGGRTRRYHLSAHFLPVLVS
rRNA inh HTS OD600: also measured in rRNA inh HTS; calls as there; OD600 change, %; measured here: OD600 growth;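 optical density of the mix in the first replicate; 0 = DMSO median and -100 = no signal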
rRNA inh HTS RFP: second read-out of rRNA inh HTS, no call of its own (marks repeat the call); RFP signal change, %; measured here: RFP humanized mutant strains;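 first replicate; 0 = DMSO median and -100 = no signal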
Active calls of the source: *; i = inactive; x = not tested or not shown; & = joins results of further samples. Only part of the results is shown; the hit share may differ from the screen's.

compound,rRNA inh HTS,Beta cell apopt,rRNA inh HTS RFP,Ecoli growth,AF4-AF9 inh,FGF22 binding,rRNA inh HTS OD600,A1 inh,T cruzi repl,UCH37 inh
Cn1c(=O)oc2cc(S(=O)(=O)N3CCC(C(=O)NCCc4ccccc4)CC3)ccc21,12,-2,0.3,0.73,-1.3,i,13,1.8,1,-0.8
COc1ccc(NC(=O)C2(c3ccc(NC(=O)c4ccc(OC(C)=O)cc4)cc3)CCCC2)cc1,x,-3,x,0.66,x,x,x,0.8,-9,-8.4
Cc1ccc2c(C)c(C(=O)NCCN3CCCC(O)C3)oc2c1C (centres undefined),-2,-3,2.8,0.7,-2.3,i,6,-0.4,0,5.6
COc1ccc(CNC(=O)CCC(=O)Nc2nnc(C(C)C)s2)cc1,x,-9,x,0.68,-1.1,i,x,0.3,-11,-0.5
O=C(CN1C(=O)/C(=C/c2ccc(F)cc2)SC1=S)N1CCN(CCc2ccccn2)CC1,-30*,x,9.2*,0.68,1.1,i,8.5*,-2.1,22,6.0
CCC(=O)c1cn(CC(=O)Nc2ccc(C)cc2)c2ccccc12,3,-1,1.0,0.69,-0.8,i,4,0.0,3,2.7
CC(C(=O)N1CCOCC1)N1C(=O)C2C3CC(C(Br)C3Br)C2C1=O (centres undefined),12,1,-0.6,0.65,0.9,i,10,0.0,-15,4.4
c1cc(CN2CCN(C3CCCCCC3)CC2)ccn1,7,-11,-7.6,0.67,-6.6,i,-3,-0.1,0,3.1
CCOC(=O)Cc1n[nH]c(=O)c2ccccc12,21,-4,-2.4,0.7,-2.8,i,14,1.3,-9,0.9
C=C(C)COc1ccc(-c2nc(N)ncc2-c2ccc(Cl)cc2)c(O)c1,1,2,-2.6,0.65,11,i,-5,-0.4,47,3.4
O=C(CSc1c2c(nc3ccc(Cl)cc13)CCCC2)NCc1ccco1,x,x,x,0.68,x,x,x,-0.7,-10,4.1
O=C(Nc1ccccc1)C1CCCN(S(=O)(=O)c2ccc(-n3cnnn3)cc2)C1 (centres undefined),x,2,x,0.71,x,x,x,1.3,-12,1.7
Cc1ccc(S(=O)(=O)c2nc(S(C)(=O)=O)sc2N2CCCCC2C)cc1 (centres undefined),-32,0,-0.4,0.67,2.5,i,-34,0.6,9,4.8
O=C(C1CCN(S(=O)(=O)c2ccccc2F)CC1)N1CCN(Cc2ccc3c(c2)OCO3)CC1,-2,-3,1.5,0.65,2.8,i,-6,0.5,x,3.1
Cc1ccc(-n2c(O)c(/C=N/NC(=O)C3COc4ccccc4O3)c3ccccc3c2=O)cc1 (centres undefined),x,-6,x,x,x,x,x,0.4,-19,-2.2
CCN(CC(=O)Nc1ccccc1C(=O)OC)S(=O)(=O)c1ccccc1,x,2,x,0.67,x,x,x,0.2,-14,1.7
N#Cc1ccsc1NC(=O)CCN1CCN(C(c2ccccc2)c2ccccc2)CC1,3,0,6.0,0.72,1.0,i,-4,-0.1,23,6.2
NS(=O)(=O)c1ccc(CCNC(=O)CCCOc2ccccc2)cc1,6,-7,-3.9,0.71,-0.4,i,2,0.6,-4,3.9
CSc1nc(-c2ccccc2)nc(NC(=O)c2ccccc2)c1C(C)=O,19,19,1.9,0.66,-3.2,i,20,0.1,32,4.3
COc1ccc(-c2nc(-c3cccs3)c(-c3cccs3)[nH]2)cc1OC,x,x,x,0.68,x,x,x,-1.6,33,-57
O=C(NC1CCCc2ccccc21)c1ccc(=O)[nH]c1 (centres undefined),x,-2,x,0.7,x,x,x,-1.1,5,1.4
O=S(=O)(NCc1cccnc1)c1ccc(Cl)c(Cl)c1Cl,x,-2,x,0.69,x,x,x,0.6,-5,0.5
C=C(c1ccc(OC)cc1)c1ccc(OC)cc1,x,1,x,0.73,x,x,x,0.5,-21,-5.2
Cc1ccc(S(=O)(=O)Cc2ccc(C(=O)NCc3ccc4c(c3)OCO4)o2)cc1,x,-6,x,0.75,x,x,x,0.2,12,2.4
O=C(O)COCC(=O)NCc1csc2ccccc12,10,1,-0.8,0.61,3.5,i,5,-2.0,-15,1.3
CCC(=O)NCCc1cc2ccc(C)cc2[nH]c1=O,13,-1,-0.2,0.7,-1.7,i,14,-0.1,x,1.3
Cc1ccc(N2Cc3ccccc3C2=S)cc1,-30,3,-5.3,0.69,0.3,i,-25,0.8,-18,2.8
O=S(=O)(c1ccccc1)c1nc(-c2cccc(Cl)c2)oc1N1CCOCC1,11,-2,0.1,0.7,8.2,i,18,0.0,11,-0.4
CC1=C(C(=O)N(C)Cc2ccccc2)C2(CCC(C)CC2)OC1=O (centres undefined),2,-3,-0.1,0.75,-6.9,i,-11,0.6,-2,1.4
Cc1ccc(-n2ncc3c2ncn2c(C)nnc32)cc1C,2,-5,1.7,0.69,x,x,4,-6.0,x,-2.3
CC(=O)Nc1ccc(S(=O)(=O)N2CCN(C(=O)Cc3ccccc3)CC2)cc1,x,5,x,0.68,x,x,x,-0.3,-6,-1.2
O=C(c1ccccc1)N1CCN(C(=S)NCc2ccc3c(c2)OCO3)CC1,x,-1,x,0.65,-5.7,i,x,0.3,-8,4.0
O=[N+]([O-])c1ccccc1S(=O)(=O)N1CCN(c2ccc(F)cc2)CC1,-10,-2,-6.9,0.7,0.9,i,-26,-0.6,0,2.5
Cc1cc(C)c(S(=O)(=O)Nc2cnc3ccccc3c2)c(C)c1,-24,-2,-0.5,0.65,11,i,-53,1.1,7,-2.9
O=C(CNC(=O)c1ccccc1F)NCCc1ccccc1F,4,0,-0.5,0.65,0.4,i,10,-0.6,x,2.3
C/C(=N\N1C(=O)CSC1=S)c1ccc(Br)cc1,8,-3,4.6,x,-3.0,i,1,0.2,-11,x
CCOC(=O)c1c(S(=O)(=O)NCC2CCN(Cc3cccc(F)c3)CC2)c(C)n(C)c1C,3,x,3.4,0.71,4.9,i,7,0.4,25,5.4
Cc1noc(C)c1NC(=O)Nc1ccc2c(c1)C(=O)N([C@H](C)CO)C[C@H](C)[C@@H](CN(C)S(=O)(=O)c1c(C)noc1C)O2,x,0,x,0.71,x,x,x,-0.3,x,1.7
NS(=O)(=O)c1cccc(NC(=O)COC(=O)CNC(=O)c2ccc(-c3ccccc3)cc2)c1,-5,-6,-4.7,0.66,-0.4,i,-30,-0.9,x,1.5
Cc1c(C)c2c(OCC(=O)N3CCC[C@H]3C(=O)O)cc3c(c2oc1=O)CCC(C)(C)O3,0,-11,-4.2,0.75,0.6,i,4,-0.3,-14,i
N/C(=N\OC(=O)c1cccs1)c1ccccc1,-2,1,-3.4,0.69,-2.9,i,11,-8.2,-23,3.5
O=C(NC(=S)Nc1ccc2[nH]c(=O)[nH]c2c1)c1ccccc1Cl,12,-1,5.1,0.77,-4.1,i,6,2.5,10,1.0
COc1ccc(OCCCC(=O)NNC(=O)CCN2CCN(c3ccccc3)CC2)cc1,13,-2,1.0,0.72,-1.1,i,9,-0.4,6,0.0
COC(=O)c1c(C)[nH]c(C)c1-c1cccc([N+](=O)[O-])c1,10,3,-3.0,0.69,2.2,i,-13,0.1,9,1.2
COC(=O)CNC(=O)/C=C/c1cc(Br)ccc1OC,7,-6,-1.2,0.7,0.6,i,12,1.2,-12,-7.6
O=C(O)CCn1cc(/C=C/C(=O)c2ccc(Cl)cc2)c(-c2ccc(Br)cc2)n1,-43,-8,-9.0,x,9.3,i,-50,0.0,x,2.2
O=C(O)/C=C/c1ccc(S(=O)(=O)Nc2ccc(OCc3ccccc3)cc2)cc1,-24*,-2,-4.2*,0.69,-2.0,i,19*,-0.3,-6,4.3
COc1ccc(C(C)(C)C)cc1NC(=O)CCn1[nH]c(=O)ccc1=O,1,2,-1.8,0.67,0.6,i,6,0.2,x,4.9
O=C(NC1(C(F)(F)F)NC(=O)N(c2ccc(F)cc2)C1=O)c1ccncc1 (centres undefined),2,-2,7.0,0.64,-10,i,9,0.0,-1,5.9
CCc1ccc(OCc2nnc(SCC(=O)N3CCN(c4ccccc4)CC3)o2)cc1,x,2,x,0.7,x,x,x,-0.4,10,7.6
CCN(c1ccccc1)S(=O)(=O)c1ccc(C(=O)Nc2ccc(C)cn2)cc1,2,0,-2.6,0.67,5.2,i,-12,-1.0,4,4.6
O=C(CN(Cc1ccccc1)C(=O)c1ccc2c(c1)OCCO2)NCc1ccc2c(c1)OCO2,x,2,x,0.8,x,x,x,1.3,4,3.6
COC(=O)c1sccc1NC(=O)c1ccc(OC)c(OC)c1,x,-1,x,0.76,x,x,x,-1.9,1,-35
CCC1Oc2ccccc2N(CC(=O)NCCCN2CCC(C)CC2)C1=O (centres undefined),9,0,-9.6,0.73,4.4,i,9,-0.4,-13,1.4
CCOC(=O)N1CCN(CCC(=O)Nc2ccc(C)cc2)CC1,x,-3,x,0.7,x,x,x,-0.3,-4,0.4
COc1ccc(NC(=O)C(NCC(C)C)c2ccccc2)cc1Cl (centres undefined),-8,-4,-2.5,0.71,-0.9,i,-13,-2.6,-6,0.2
NS(=O)(=O)c1ccc(CNC(=O)c2ccc(C(=O)c3ccccc3)cc2)cc1,3,3,7.8,0.67,-5.8,i,-22,-2.3,x,5.3
O=C(Nc1cccc(-c2cnc3ccccc3n2)c1)c1ccco1,x,5,x,0.68,x,x,x,-0.4,7,-0.7
COc1ccccc1C(=O)Nn1c(C2CCC2)nc2ccccc2c1=O,x,-2,x,0.74,x,x,x,-0.3,56*,1.9
COCc1nnc(NS(=O)(=O)c2ccccc2)s1,x,-4,x,0.68,x,x,x,-1.2,20,1.7
CC(C[N+](C)(C)C)OC(N)=O (centres undefined),x,0,x,0.68,-4.2&-2.7,i,x,0.2,5,0.1
CC(C)CNC(=O)COC(=O)c1cccc(S(=O)(=O)NCC(F)(F)F)c1,4,-1,4.7,0.7,25*,i,8,0.9,-2,1.9
O=C(CCCCCn1c(=O)[nH]c2ccccc2c1=O)N1CCN(Cc2ccc3c(c2)OCO3)CC1,x,x,x,0.66,x,x,x,-0.5,-15,0.7

Whole records, looked up by structure. Screens in order: rRNA inh HTS	Beta cell apopt	rRNA inh HTS RFP	Ecoli growth	AF4-AF9 inh	FGF22 binding	rRNA inh HTS OD600	A1 inh	T cruzi repl	UCH37 inh
CCOC(=O)N1CCN(CCC(=O)Nc2ccc(C)cc2)CC1 as listed: x	-3	x	0.7	x	x	x	-0.3	-4	0.4
CC(=O)Nc1ccc(S(=O)(=O)N2CCN(C(=O)Cc3ccccc3)CC2)cc1 as listed: x	5	x	0.68	x	x	x	-0.3	-6	-1.2
